# HSV augment – HSV replication enhancement. HSV replication augmentation in cells, fold increase. maximum fold increase. 0.005% of 220,000 active;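 active = peak rise of 1.5-fold or more in the series; tested in PC3 cells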;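 note: first round at 10 µM; read as green reporter fluorescence; hits show the peak of a series up to 25 µM; 1 = signal of infected wells without compound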
# PKD1 inh – PKD1 (human) kinase inhibition. 0.056% of 200,000 active. inhibition, %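 (about 10 µM by stock and volumes)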. PKD1 kinase fluorescence polarization assay. Q15139;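 active = inhibition of 50% or more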;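 note: controls were vehicle for no effect and a reference inhibitor for full effect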
# GALR2 ag – activates the human galanin receptor 2; activation, %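 (tested at 5 µM)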; O43603; 0.48% of 140,000 active; GALR2-expressing cells, agonist activation read-out;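 active = above mean plus 3 SD of all compounds, about 5% in these data, not always enough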;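 note: 0% = vehicle buffer wells and 100% = reference agonist at full effect; tested in CHO reporter cells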
# Target sequence (O43603 whole entry, looked up): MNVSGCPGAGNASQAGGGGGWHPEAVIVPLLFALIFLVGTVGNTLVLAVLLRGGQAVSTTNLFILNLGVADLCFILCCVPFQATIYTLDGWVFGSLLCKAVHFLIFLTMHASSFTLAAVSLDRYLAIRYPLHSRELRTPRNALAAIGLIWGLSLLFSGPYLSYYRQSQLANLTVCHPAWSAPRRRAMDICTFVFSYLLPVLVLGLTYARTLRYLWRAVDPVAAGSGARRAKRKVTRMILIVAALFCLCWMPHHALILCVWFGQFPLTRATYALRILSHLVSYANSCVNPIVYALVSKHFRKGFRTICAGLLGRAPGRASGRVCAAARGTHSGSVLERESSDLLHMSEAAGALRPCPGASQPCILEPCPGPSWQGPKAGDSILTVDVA
# RGS16-Gao – regulators of human RGS16-Galphao interaction; O15492+P09471; bead-based flow cytometry RGS16-Galphao binding, fluorescence; actives lie on both sides; binding response (% of control), % at 10 µM; 0.38% of 220,000 active; AID 1441;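 active = below 25% or above 175%, edge rows of some plates excepted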;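 note: Galphao activated by GDP with aluminum fluoride before binding; 100% = wells without compound and 0% = beads without RGS; some results beyond the cut were filed as inactive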
# Target sequence (O15492 whole entry, looked up): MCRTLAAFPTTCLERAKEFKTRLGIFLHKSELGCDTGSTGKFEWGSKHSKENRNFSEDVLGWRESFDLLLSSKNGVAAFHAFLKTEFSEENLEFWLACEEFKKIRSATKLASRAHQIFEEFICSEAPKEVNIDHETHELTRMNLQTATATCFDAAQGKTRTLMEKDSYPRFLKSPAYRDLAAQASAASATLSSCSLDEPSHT
# Target sequence (P09471 whole entry, looked up): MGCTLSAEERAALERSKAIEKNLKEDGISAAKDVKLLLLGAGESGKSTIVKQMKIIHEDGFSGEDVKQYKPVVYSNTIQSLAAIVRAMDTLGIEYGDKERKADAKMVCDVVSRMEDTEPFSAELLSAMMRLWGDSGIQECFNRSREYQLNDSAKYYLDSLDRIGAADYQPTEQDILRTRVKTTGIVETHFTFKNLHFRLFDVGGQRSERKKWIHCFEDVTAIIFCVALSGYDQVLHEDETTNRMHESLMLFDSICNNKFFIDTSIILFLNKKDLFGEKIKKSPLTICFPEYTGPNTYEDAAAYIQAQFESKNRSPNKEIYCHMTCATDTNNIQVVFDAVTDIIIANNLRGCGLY
# Insulin prom inh – TRM-6 insulin promoter activity inhibition. TRM-6 cells (human fetal islet line), insulin promoter-eGFP reporter, imaging; reporter expression induced with tamoxifen. 0.9% of 130,000 active. inhibition, % at 2 µM. AID 1273;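 active = inhibition above the mean plus 3 SD, with well images judged a real hit on visual review, cut at about 60% in these data, passing the limit was not always enough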
# Insulin prom inh cell count – recorded beside Insulin prom inh, whose call it bears; normalized cell count, %; measured here: cell count, toxicity; reference of the scale not given here;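 cells exposed to compound for 48 h; stained nuclei by imaging scaled within each plate; lower means fewer cells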
# HSV augment primary fold – also measured in HSV augment; calls as there; fold increase; compound at 10 µM; measured here: primary screen fold increase 10 uM; tested in PC3 cells;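 GFP signal in the first replicate; 1 = infected wells without compound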
# The depositor's hits bear a star; i = inactive; · = no result given.
SMILES,HSV augment,HSV augment primary fold,PKD1 inh,GALR2 ag,RGS16-Gao,Insulin prom inh,Insulin prom inh cell count
COc1ccc(C(C(=O)NC2CCCC2)N(CCN(C)C)C(=O)c2snc(C(N)=O)c2N)cc1 (configuration not stated),i,1.1,2,-1.5,142,·,·
O=C1OCc2cc(NC(=O)C3CCCCC3)ccc21,i,0.88,6,-2.4,79,-27,161
OC(C#CCN1CCCCCC1)(c1ccccc1)c1cccnc1 (configuration not stated),i,1.1,·,·,95,·,·
[O-]c1n[n+](-c2ccc(Cl)cc2Cl)cc2ccccc12,i,1.1,6,·,104,-69,103
O=C(C1CCC(CNc2nc(=S)[nH]c3ccccc23)CC1)N1CCN(c2ccccn2)CC1 (configuration not stated),·,·,3,0.1,94,0,121
Cc1ccc(NC(=O)/C(C#N)=C/c2ccc(Sc3nc(C)cc(C)n3)o2)cc1,i,0.92,-5,-1.0,85,21,101
C=CCSc1nnc(-c2ccncc2)n1-c1ccc(OCC)cc1,i,0.73,-4,-1.1,99,-444,46
N=c1sccn1CC(=O)Nc1ccccc1Sc1ccccc1,i,1.1,4,·,103,·,·
CCn1c(SCC(=O)N/N=C/c2c[nH]c3ccccc23)nnc1-c1ccc(C)cc1,i,1,-1,·,104,-55,102
Cc1cccc(Cn2c(SCCN3CCOCC3)nc3c2c(=O)n(C)c(=O)n3C)c1,i,0.93,-10,0.4,96,43,77
O=C(CN1C(=O)c2cccc3cccc1c23)N1CCN(c2ccccc2)CC1,i,0.95,0,-1.5,107,43,117
CN(C)c1ccc(C=C2C(=O)OC3(CCCC3)OC2=O)cc1,i,1,-10,·,105,·,·
COc1cc(CN2CCC(C(=O)NC3CCCC3)CC2)cc(Br)c1O,i,0.99,-3,-1.3,104,·,·
Cc1ccc(CCC(=O)Nc2ncc(Cc3cc(Cl)ccc3Cl)s2)o1,i,0.65,2,8.7*,99,-169,7
O=C(CSC1=NNC(c2ccccn2)S1)Nc1ccccc1 (configuration not stated),i,0.88,·,·,100,·,·
CCOC(=O)c1nc2nc(-c3cccs3)cc(C(F)(F)F)n2n1,i,0.94,-2,0.6,107,-11,114
O=C(Oc1ccc2ccccc2c1Cl)N1CCCCCC1,i,1,-7,-2.1,121,·,·
CCc1nc(NCC(C)C)c(C#N)c2c1COC(C)(C)C2,i,1.1,-5,-1.7,106,45,96
Cc1cc(C)c2nc(/N=C(\N)NC(=O)c3ccccc3)nc(C)c2c1,i,0.77,·,·,103,·,·
CC(C)[C@@H]1NC(=O)N(c2ccc(Oc3ccccc3)cc2)C1=O,i,0.93,5,-2.2,93,36,99

# Random excerpt: three entries already listed, in no set order.
SMILES,HSV augment,HSV augment primary fold,PKD1 inh,GALR2 ag,RGS16-Gao,Insulin prom inh,Insulin prom inh cell count
N=c1sccn1CC(=O)Nc1ccccc1Sc1ccccc1,i,1.1,4,·,103,·,·
COc1ccc(C(C(=O)NC2CCCC2)N(CCN(C)C)C(=O)c2snc(C(N)=O)c2N)cc1 (configuration not stated),i,1.1,2,-1.5,142,·,·
O=C(C1CCC(CNc2nc(=S)[nH]c3ccccc23)CC1)N1CCN(c2ccccn2)CC1 (configuration not stated),·,·,3,0.1,94,0,121

# The list continues.
SMILES,HSV augment,HSV augment primary fold,PKD1 inh,GALR2 ag,RGS16-Gao,Insulin prom inh,Insulin prom inh cell count
O=C(Nc1ccccc1C(=O)N1CCN(Cc2ccccc2)CC1)c1ccccn1,i,0.95,8,-1.3,102,·,·
O=C(CSc1nnc(Cc2cc(=O)[nH]c(=O)[nH]2)n1-c1ccccc1)N1CCCc2ccccc21,i,0.86,-6,-2.3,100,·,·
CCCCS(=O)(=O)NC1=NCN(CCO)CN1,i,0.87,-9,-1.1,72,·,·
CCOC(=O)NC(=O)C(=CNc1cccc(OC)c1)C(=O)NC(=O)OCC,i,0.99,-4,0.1,103,-10,139
O=C(Nc1ccncc1)c1ccc(F)cc1,i,1,0,-1.6,98,21,31
CS(=O)(=O)NCc1ccc(C(=O)O)cc1,i,0.93,2,·,103,·,·
Cc1cccc(NC(=S)N=Nc2c(O)n(C)c3ccc(S(=O)(=O)N4CCOCC4)cc23)c1,i,0.89,1,-1.6,108,-300,13
CN(CC(=O)Nc1ccc(F)cc1)CC(=O)Nc1ccc(F)c(F)c1F,i,0.86,-2,·,116,50,32
COc1nc(N/N=C/c2ccccc2F)nc(N2CCCCC2)n1,i,1.1,1,-4.9,102,42,121
Cc1sc(NC(=O)CN(Cc2ccc(F)cc2)C(=O)C(C)C)c(C(N)=O)c1C,i,1.3,-6,-1.3,105,-30,132
CCOC(=O)CNC(=O)c1cccs1,i,0.89,-3,-3.1,50,14,195
O=C(Nc1c(Cl)cccc1Cl)c1ccc(-c2ccccc2)cc1,i,1,-7,-2.0,103,·,·
COC(=O)c1ccc(CSc2nnc3c(n2)[nH]c2ccccc23)cc1,i,1.2,·,·,93,·,·
COc1ccccc1C(=O)NC(C)c1nc2ccccc2[nH]1 (configuration not stated),i,1.1,-9,-2.9,95,·,·
CCOC(=O)C(C)Oc1cccc2c(=O)n(CC(=O)N3CCCc4ccccc43)ccc12 (configuration not stated),i,0.88,-4,-3.3,84,·,·
CN(CCc1ccccn1)C1CC(=O)N(c2ccc(Cl)cc2)C1=O (configuration not stated),i,1,-5,-1.0,101,·,·
CC(C)(C)n1nnnc1C(c1cccs1)N1CCN(C(=O)c2ccco2)CC1 (configuration not stated),i,1,-1,0.6,100,-13,116
COc1ccc(Cc2noc(CN3CCN(Cc4csc(C)n4)CC3)n2)cc1OC,i,0.98,4,·,75,·,·
CCOc1ccc(N/N=C(/C#N)C(N)=O)cc1,i,0.81,7,-1.5,106,30,83
NC(=O)N/N=C/CCc1ccccc1,i,1,·,·,102,·,·
CN(NC(=O)c1ccccc1)C1=NS(=O)(=O)c2ccccc21,i,0.95,1,·,112,·,·
CC1=C(C)/C(=N\OS(=O)(=O)c2ccc(C)cc2)C=CC1=O,i,0.71,10,-0.7,100,-47,25
CCC(C)(C)NC(=O)C(c1cccc(OC)c1OC)N(CC(C)C)C(=O)CCC(=O)Nc1cc(C)on1 (configuration not stated),i,0.95,0,·,105,·,·
CC(=O)Nc1cccc(C(=O)NCC2(N3CCCCC3)CCCCC2)c1,i,1,-4,·,96,·,·
COc1ccc(OC)c([C@@H]2OCCC=C[C@H]2C)c1,i,0.98,-13,-3.1,100,19,112
CC1(c2nnc(-c3ccc(Cl)cc3)o2)CC(c2ccncc2)=NO1 (configuration not stated),i,0.95,·,·,98,·,·
COC(=O)C1=C(C)Nc2[nH]c(=S)[nH]c(=O)c2C1c1ccc(O)cc1 (configuration not stated),i,0.93,·,·,101,·,·
Cc1ccccc1Cn1nc(C)c(NC(=O)c2cc3n(n2)C(C(F)F)CC(C(F)F)N3)c1C (configuration not stated),i,0.86,4,-3.8,97,5,121
COc1ccc(NC(=O)c2ccccc2NC(=O)CSc2ccccc2)cc1,i,1,3,-0.9,97,·,·
O=C(NCc1cccc(C(F)(F)F)c1)c1cccc(S(=O)(=O)NCc2ccccc2)c1,i,0.78,-9,-0.5,114,-3,117
O=C(COC(=O)C1CCN(C(=O)c2ccc(Cl)cc2)CC1)NC1CCS(=O)(=O)C1 (configuration not stated),i,1.2,-3,·,97,·,·
S=c1[nH]nc(-c2ccccc2Cl)n1Cc1ccccc1,i,0.96,-8,·,109,·,·
O=C(NCc1ccco1)c1ccccc1NS(=O)(=O)c1ccc(Cl)s1,i,0.91,1,-0.9,103,-65,50
Cc1cccc(C)c1NC(=S)NC(C)(C)CO,i,0.94,·,·,99,·,·
COc1ccc(-n2c(N)c(C(=O)NCc3ccco3)c3nc4ccccc4nc32)cc1,i,0.77,5,3.5,50,33,94
O=C1C(=O)N(Cc2cccnc2)C(c2ccccn2)/C1=C(/O)c1ccc(F)cc1 (configuration not stated),i,0.85,-10,-2.1,87,·,·
O=C(CCN1CCN(C(=O)c2ccco2)CC1)Nc1ccc(F)cc1,i,0.95,-4,-0.7,95,29,93
O=C(CCc1nc(-c2ccccc2F)no1)NCc1ccco1,i,0.82,-6,-1.8,103,47,72
O=C(CCSCc1ccc(Cl)cc1)NCc1cccnc1,i,0.97,-4,·,98,-33,159
CNC(=O)CSc1nnc(-c2ccco2)n1-c1ccc(C)cc1,i,0.87,-5,-4.4,102,-38,103
Cc1ccc(C(=O)N[C@H](C(=O)OCc2nnc(-c3ccccc3)o2)C(C)C)cc1,i,0.81,·,·,118,·,·
CC(C)CN1CCNC(=O)C1CC(=O)N(C)CC1CCOCC1 (configuration not stated),i,0.94,-6,·,97,·,·
CCOC(=O)c1cc2sc(C)cc2n1C(C)C(=O)OCC (configuration not stated),i,0.85,-1,0.3,94,26,108
Cc1nnc(NC(=O)CSc2nc3ccccc3[nH]2)s1,i,0.95,0,·,109,-100,60
CSc1ccccc1C(=O)Nc1ccccc1C(=O)N1CCCC1,i,1.1,-1,·,100,·,·
CCOc1ccccc1NC(=O)CSc1nnc2ccc(-c3ccncc3)nn12,i,0.79,-4,·,100,56,86
O=S(=O)(NCc1ccccc1)c1cccc(S(=O)(=O)N2CCOCC2)c1,i,0.82,-1,-1.2,89,50,115
Cc1ccc(N2CCN(/N=C/c3ccncc3)CC2)cc1,i,1.1,3,·,129,·,·
COc1ccc(NC(=S)Nc2ccccn2)c(OC)c1,i,1.1,-17,-0.1,103,-30,46
CCCCOc1ccc(-n2nc(C)cc2C)nn1,i,0.84,-7,0.5,103,-35,153
CCOC(=O)c1nn(-c2ccccc2)c(=O)c2c(NC(C)=O)scc12,i,1.1,-1,·,101,24,115
Cc1cc(=O)[nH]c(N/N=C/c2c(C)nn(-c3ccccc3)c2C)n1,i,0.69,-5,·,103,·,·
Cc1ccccc1-n1c(C)cc(/C=C(\C#N)C(=O)NCC2CCCO2)c1C (configuration not stated),i,0.89,0,-0.5,78,·,·
Oc1ccc(/C=N/Nc2ccccc2)cc1,i,1,-5,·,77,-60,80
CCOC(=O)Cc1nnc(NC(=O)c2ccccc2OC)s1,i,0.96,-15,-4.2,102,36,73
Cc1nc2scc(-c3ccccc3)c2c(=O)o1,i,0.99,-7,-0.9,100,·,·
Cc1scc(-c2n[nH]c(=S)n2Cc2ccccc2)c1C,i,0.89,-7,-1.5,79,16,121
NN=C1c2cc([N+](=O)[O-])ccc2-c2ccc([N+](=O)[O-])cc21,i,0.88,-1,·,110,·,·
CCOC(=O)C1C(=O)OC(C)(C)C1C(CC)C(=O)c1ccccc1 (configuration not stated),i,1,-7,·,102,·,·
NS(=O)(=O)c1ccc(CCNC(=O)CCCCCNc2nc(=S)[nH]c3ccccc23)cc1,i,1,-18,-0.3,116,·,·

# Gathered by group: the entries above containing a furan ring, fused or not (8)
SMILES,HSV augment,HSV augment primary fold,PKD1 inh,GALR2 ag,RGS16-Gao,Insulin prom inh,Insulin prom inh cell count
Cc1ccc(NC(=O)/C(C#N)=C/c2ccc(Sc3nc(C)cc(C)n3)o2)cc1,i,0.92,-5,-1.0,85,21,101
Cc1ccc(CCC(=O)Nc2ncc(Cc3cc(Cl)ccc3Cl)s2)o1,i,0.65,2,8.7*,99,-169,7
CC(C)(C)n1nnnc1C(c1cccs1)N1CCN(C(=O)c2ccco2)CC1 (configuration not stated),i,1,-1,0.6,100,-13,116
O=C(NCc1ccco1)c1ccccc1NS(=O)(=O)c1ccc(Cl)s1,i,0.91,1,-0.9,103,-65,50
COc1ccc(-n2c(N)c(C(=O)NCc3ccco3)c3nc4ccccc4nc32)cc1,i,0.77,5,3.5,50,33,94
O=C(CCN1CCN(C(=O)c2ccco2)CC1)Nc1ccc(F)cc1,i,0.95,-4,-0.7,95,29,93
O=C(CCc1nc(-c2ccccc2F)no1)NCc1ccco1,i,0.82,-6,-1.8,103,47,72
CNC(=O)CSc1nnc(-c2ccco2)n1-c1ccc(C)cc1,i,0.87,-5,-4.4,102,-38,103

# Next results:
SMILES,HSV augment,HSV augment primary fold,PKD1 inh,GALR2 ag,RGS16-Gao,Insulin prom inh,Insulin prom inh cell count
CCOC(=O)C1=C(C)NC(=S)N(C(C)=O)C1c1ccc(OC)c(OC)c1 (configuration not stated),i,0.92,·,·,67,·,·
CC1(C)Cc2nc(NC3CCCCC3)c(C#N)cc2CO1,i,0.97,-3,·,96,·,·
Cc1noc(C)c1C(=O)Nc1ccc2c(c1)CCC2,i,0.89,-8,-1.9,101,49,157
COCC(=O)NCCc1nc2ccccc2[nH]1,i,1,-9,-0.8,106,·,·
COc1ccccc1CNc1ccccc1F,i,0.97,7,·,101,·,·
O=C(NCc1cc(C(F)(F)F)cc(C(F)(F)F)c1)C1CC(c2ccccc2[N+](=O)[O-])=NO1 (configuration not stated),i,0.88,0,-1.9,85,·,·
COc1ccc(/C=N/NC(=O)CNC(=O)c2ccc(S(=O)(=O)N3CCOCC3)cc2)cc1OC,i,0.95,-3,-0.9,108,·,·
NC1=NC(=Nc2ccc(S(N)(=O)=O)cc2)c2ccccc21,i,0.76,·,·,98,·,·
O=C(COC(=O)CNC(=O)c1ccccc1)Nc1ccc(S(=O)(=O)N2CCCC2)cc1,i,1,-7,·,106,·,·
CCc1ccc(S(=O)(=O)Nc2ccc(N3CCN(C)CC3)cc2)cc1,i,0.89,·,·,103,·,·
